Vaccinia stage: blocks a specific stage of Vaccinia orthopoxvirus infection; activity change (mCherry), % (concentration not given with the values); Vaccinia-infected cells, mCherry/Venus stage reporter fluorescence; active compounds read low; some inactives read as strong as hits; actives 0.01% (n = 89,000); AID 1053133;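 active = mCherry past -33% and 40 or more points under the early reporter, replicates agreeing; inconclusive = past -33% without that gap or agreement; tested in A549 cells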;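 note: scaled between vehicle wells and reference inhibitor wells; 23 nL library stock went into each well; one replicate is shown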
Vaccinia stage Venus: second read-out of Vaccinia stage, no call of its own (marks repeat the call); activity change (Venus), %; measured here: Venus reporter, other viral stage;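 negative = less Venus signal; first of two replicates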
Numbers without * were called inactive; ? = inconclusive; · = not tested or not shown; & = joins results of further samples. Not all compounds are listed; rates above refer to the full screens.

SMILES | Vaccinia stage | Vaccinia stage Venus
Cc1noc(C)c1NC(=O)N(C)C[C@@H]1Oc2ccc(NC(=O)Cn3cnnn3)cc2C(=O)N([C@H](C)CO)C[C@H]1C | 11 | 3
O=C(Nc1ccc(-c2ccccc2)cc1)[C@H]1[C@H](CO)[C@H]2Cn3c(cccc3=O)[C@H]2N1CC1CCCC1 | ? | ·
C[C@@H](NC(=O)C[C@H]1C=C[C@@H](NC(=O)c2cccnc2)[C@@H](CO)O1)c1ccccc1 | 6 | 6
O=C(C[C@H]1CC[C@@H]2[C@H](COC[C@H](O)CN2Cc2ccccc2)O1)NCc1ccccc1Cl | -11 | -16
C[C@H]1CN([C@@H](C)CO)C(=O)Cc2cc(NC(=O)c3ccncc3)ccc2O[C@H]1CN(C)C | 9 | 6
O=C(NCC[C@H]1CC[C@@H](NC(=O)C2CCC2)[C@H](CO)O1)c1ccc(F)cc1 | 9 | 11
C[C@@H]1CCCCO[C@@H](CN(C)C(=O)C2CCCCC2)[C@@H](C)CN([C@@H](C)CO)C(=O)c2cc(NC(=O)c3ccccc3)ccc2O1 | -31 | -34
CC(C)CC#Cc1ccc2c(c1)O[C@@H](CN(C)C(=O)c1ccncc1)[C@@H](C)CN([C@H](C)CO)S2(=O)=O | -20 | -14
COc1ccc(S(=O)(=O)N(C)C[C@@H]2OCCCC[C@H](C)Oc3ccc(NS(=O)(=O)c4ccc(F)cc4)cc3C(=O)N([C@H](C)CO)C[C@H]2C)cc1 | -20 | -25
CC(C)NC(=O)Nc1ccc2c(c1)C(=O)N([C@H](C)CO)C[C@H](C)[C@H](CN(C)Cc1ccc(Cl)c(Cl)c1)O2 | -14 | -12
COc1cccc(S(=O)(=O)N[C@@H]2CC[C@H](CC(=O)NCc3ccccc3)O[C@@H]2CO)c1 | -6 | -5
C[C@@H](C(=O)N(C)C[C@H]1OCc2ccccc2-c2ccccc2C(=O)N([C@@H](C)CO)C[C@@H]1C)c1ccccc1 | 5 | 6
CCCC#Cc1ccc2c(c1)O[C@@H](CN(C)C(=O)c1cccnc1)[C@@H](C)CN([C@H](C)CO)S2(=O)=O | 6 | -1
CN(C[C@H]1[C@H](c2ccccc2)[C@@H](CO)N1CC1CC1)C(=O)c1ccc(F)cc1 | -1 | 6
C[C@@H]1CN([C@H](C)CO)C(=O)c2cc(C#CCC3CCCC3)cnc2O[C@H]1CN(C)C(=O)CC1CC1 | -29 | -26
C[C@H]1CN([C@@H](C)CO)C(=O)c2cc(C3=CCCCC3)cnc2O[C@@H]1CN(C)Cc1ccccn1 | -21 | -20
O=C(c1cccnc1)N1CC2(C1)[C@H](c1ccccc1)[C@@H](CO)N2C(=O)CC1CC1 | 14 | 14
CCCNc1ncnc2ccc(Br)cc12 | -17 | -12
CCCC(=O)N1CC2(C1)CN(C(=O)Nc1ccc(F)cc1)[C@@H](CO)c1c2c2ccc(OC)cc2n1C | -2 | -10
C[C@H](CO)N1C[C@H](C)[C@H](CN(C)Cc2ccc(C(=O)O)cc2)Oc2c(cccc2N(C)C)C1=O | 10 | 9
O=C(C[C@@H]1CC[C@H](NS(=O)(=O)c2ccc(F)cc2)[C@@H](CO)O1)NCc1ccc(Cl)c(Cl)c1 | -18 | -8
CCS(=O)(=O)NCC[C@H]1CC[C@@H](NC(=O)C2CCCC2)[C@H](CO)O1 | -6 | 10
C[C@H](CO)N1C[C@H](C)[C@H](CN(C)C(=O)Nc2ccc(C(F)(F)F)cc2)Oc2ccc(NC(=O)Cc3cn(C)c4ccccc34)cc2CC1=O | -24 | -6
CC(C)C#Cc1ccc2c(c1)O[C@H](CN(C)Cc1ccccn1)[C@@H](C)CN([C@@H](C)CO)S2(=O)=O | ? | ·
CC(C)C#Cc1cnc2c(c1)C(=O)N([C@H](C)CO)C[C@H](C)[C@@H](CN(C)C(=O)c1cccc(F)c1)O2 | 4 | -9
CCN1[C@H](C(=O)N2CCN(C)CC2)[C@@H](CO)[C@@H]2Cn3c(ccc(-c4ccccc4)c3=O)[C@@H]21 | 1 | -3
N#Cc1ccc(-c2ccc([C@@H]3[C@H]4CN(C(=O)Nc5ccc(F)cc5)CCCCN4[C@H]3CO)cc2)cc1 | ? | ·
C[C@H](CO)N1C[C@H](C)[C@@H](CN(C)S(=O)(=O)c2ccc(F)cc2)Oc2ccc(NC(=O)C3CC3)cc2CC1=O | -4 | -4
C[C@@H]1CCCCO[C@H](CN(C)C(=O)Nc2ccc3c(c2)OCO3)[C@H](C)CN([C@H](C)CO)C(=O)c2cc(NC(=O)c3ccncc3)ccc2O1 | 10 | 2
CO[C@@H]1CN(C)C(=O)c2ccc(NC(=O)C3CC3)cc2OC[C@@H](C)N(C(=O)CN2CCOCC2)C[C@H]1C | 11 | 6
COc1ccc(NC(=O)N2C[C@H](O)COC[C@@H]3O[C@@H](CC(=O)NCc4ccccc4OC)CC[C@H]32)cc1 | 13 | 12
COc1cccc(-c2cn(CC[C@H]3CC[C@@H](NC(=O)CC4CC4)[C@@H](CO)O3)nn2)c1 | 1 | 10
CC(C)NC(=O)N(C)C[C@@H]1Oc2ncc(-c3ccccc3F)cc2C(=O)N([C@@H](C)CO)C[C@@H]1C | 4 | 2
Cc1ccc(S(=O)(=O)N(C)C[C@H]2Oc3cc(C#Cc4ccccc4)ccc3S(=O)(=O)N([C@H](C)CO)C[C@H]2C)cc1 | -13 | -11
CN(C)CCCNC(=O)C[C@H]1CC[C@H](NS(=O)(=O)c2ccccc2)[C@@H](CO)O1 | 9 | 4
CC(=O)N1CC2(C1)[C@H](c1ccc(-c3cccc(F)c3)cc1)[C@@H](CO)N2CC1CCOCC1 | 0 | 2
O=C(C[C@H]1CC[C@@H]2[C@H](COC[C@H](O)CN2C(=O)Nc2ccc(C(F)(F)F)cc2)O1)NCC1CC1 | -7 | 1
CNC(=O)C[C@H]1CC[C@H]2[C@@H](COc3ccc(NC(=O)c4cccc(F)c4)cc3C(=O)N2C)O1 | 8 | 3
CCCNC(=O)c1cc2c(c(-c3cccc(-c4cccc(F)c4)c3)n1)[C@@H](CCO)N([S@](=O)C(C)(C)C)C2 | ? | ·
CCCC#Cc1ccc([C@H]2[C@@H](CO)N3C(=O)CN(C(=O)Cc4cccnc4)C[C@H]23)cc1 | 12 | 8
CC(C)NC(=O)Nc1cccc2c1O[C@H](CN(C)S(=O)(=O)c1ccc(F)cc1)[C@H](C)CN([C@@H](C)CO)C2=O | -2 | -2
CCCN(C)C[C@H]1Oc2ncc(Br)cc2C(=O)N([C@H](C)CO)C[C@H]1C | 8 | 11
CCCC(=O)Nc1ccc2c(c1)C(=O)N(C)C[C@H](OC)[C@@H](C)CN(C(=O)CN(C)C)[C@H](C)CO2 | 1 | -5
CC(C)CC#Cc1ccc([C@@H]2[C@@H](CO)N3C(=O)CN(C(=O)Nc4ccc(F)cc4)C[C@H]23)cc1 | ? | ·
C[C@@H]1CN([C@H](C)CO)S(=O)(=O)c2ccc(-c3cccc(F)c3)cc2O[C@@H]1CN(C)C(=O)C1CC1 | 8 | 13
C[C@H](CO)N1C[C@H](C)[C@H](CN(C)Cc2ccc(C(=O)O)cc2)Oc2ccc(NC(=O)C3CCCCC3)cc2CC1=O | 9 | 5
CC(=O)NC[C@H]1[C@@H](c2ccc(-c3cccnc3)cc2)[C@H](CO)N1C(=O)C1CC1 | 14 | 13
C[C@H](CO)N1C[C@H](C)[C@@H](CN(C)CC2CC2)Oc2ccc(NS(=O)(=O)c3cccs3)cc2CC1=O | 3 | 0
CNC[C@@H]1OCc2ccccc2-c2ccccc2C(=O)N([C@@H](C)CO)C[C@@H]1C | 23 | 1
Cc1cc(C(=O)Nc2cccc3c2O[C@@H](CN(C)C(=O)Nc2ccc(C(F)(F)F)cc2)[C@@H](C)CN([C@H](C)CO)C3=O)n(C)n1 | -14 | -7

Part of the list above, with values under each structure:
Values run as follows: Vaccinia stage	Vaccinia stage Venus
CC(=O)NC[C@H]1[C@@H](c2ccc(-c3cccnc3)cc2)[C@H](CO)N1C(=O)C1CC1
    14	13
C[C@H](CO)N1C[C@H](C)[C@@H](CN(C)CC2CC2)Oc2ccc(NS(=O)(=O)c3cccs3)cc2CC1=O
    3	0

Remaining list, next part.
SMILES | Vaccinia stage | Vaccinia stage Venus
CC(C)NC(=O)N(C)C[C@H]1OCCCC[C@H](C)Oc2ccc(NC(=O)NC3CCCCC3)cc2C(=O)N([C@H](C)CO)C[C@@H]1C | 23&14 | 9&3
Cc1noc(C)c1S(=O)(=O)N(C)C[C@H]1OCCCC[C@@H](C)Oc2ccc(NC(=O)Cc3ccccc3)cc2C(=O)N([C@@H](C)CO)C[C@@H]1C | -17 | -15
C[C@@H]1CN([C@H](C)CO)C(=O)c2cccc(NC(=O)CCCCCC(=O)Nc3ccccc3N)c2O[C@@H]1CN(C)S(=O)(=O)c1ccccc1 | 3 | -3
COc1ccccc1-c1ccccc1[C@H]1[C@@H](C#N)N(C(=O)C2CC2)[C@H]1CO | 10 | 6
CO[C@H]1CN(C)C(=O)c2cc(NC(=O)Nc3cccc(F)c3)ccc2OC[C@@H](C)N(C)C[C@H]1C | -8 | -8
O=C(CCN1CCCCC1)NCC[C@@H]1CC[C@@H](NC(=O)C2CC2)[C@@H](CO)O1 | 7 | 6
CC(C)C#Cc1ccc2c(c1)O[C@@H](CN(C)S(C)(=O)=O)[C@@H](C)CN([C@H](C)CO)S2(=O)=O | 0 | -9
CN(C)CC(=O)Nc1ccc2c(c1)[C@@H]1C[C@H](CC(=O)NCc3cccnc3)O[C@@H](CO)[C@@H]1O2 | 18 | 18
CN1C(=O)c2cc(NC(=O)c3ccc(F)cc3)ccc2OC[C@@H]2O[C@@H](CC(=O)NCC3CC3)CC[C@@H]21 | -2 | 1
CN1C(=O)c2cc(NC(=O)c3ccccc3)ccc2OC[C@@H]2O[C@@H](CC(=O)O)CC[C@@H]21 | 10 | 7

Retrieved by structure from the entries so far (7):
SMILES | Vaccinia stage | Vaccinia stage Venus
CO[C@H]1CN(C)C(=O)c2cc(NC(=O)Nc3cccc(F)c3)ccc2OC[C@@H](C)N(C)C[C@H]1C | -8 | -8
CN1C(=O)c2cc(NC(=O)c3ccccc3)ccc2OC[C@@H]2O[C@@H](CC(=O)O)CC[C@@H]21 | 10 | 7
C[C@@H]1CN([C@H](C)CO)C(=O)c2cccc(NC(=O)CCCCCC(=O)Nc3ccccc3N)c2O[C@@H]1CN(C)S(=O)(=O)c1ccccc1 | 3 | -3
O=C(CCN1CCCCC1)NCC[C@@H]1CC[C@@H](NC(=O)C2CC2)[C@@H](CO)O1 | 7 | 6
CN1C(=O)c2cc(NC(=O)c3ccc(F)cc3)ccc2OC[C@@H]2O[C@@H](CC(=O)NCC3CC3)CC[C@@H]21 | -2 | 1
CC(C)C#Cc1ccc2c(c1)O[C@@H](CN(C)S(C)(=O)=O)[C@@H](C)CN([C@H](C)CO)S2(=O)=O | 0 | -9
CN(C)CC(=O)Nc1ccc2c(c1)[C@@H]1C[C@H](CC(=O)NCc3cccnc3)O[C@@H](CO)[C@@H]1O2 | 18 | 18

The results go on.
SMILES | Vaccinia stage | Vaccinia stage Venus
Cc1ccccc1S(=O)(=O)N1[C@@H]2CNC[C@H]1C2c1ccc(-c2cccc(C#N)c2)cc1 (stereo partly drawn) | -10&28 | -7&39
Cc1noc(C)c1S(=O)(=O)N(C)C[C@@H]1OCCCC[C@H](C)Oc2ccc(NC(=O)Nc3ccc(F)cc3)cc2C(=O)N([C@H](C)CO)C[C@@H]1C | -14 | -3
COCC(=O)Nc1ccc2c(c1)C(=O)N(C)[C@H]1CC[C@H](CC(=O)Nc3ccccc3)O[C@H]1CO2 | 1 | -1
COC(=O)[C@H]1[C@H](CO)[C@H]2Cn3c(ccc(-c4cccc(C(=O)N(C)C)c4)c3=O)[C@@H]1N2CC1CC1 | 2 | -4
CN1[C@@H]2c3ccc(-c4ccccc4)c(=O)n3C[C@H]1[C@H](CO)[C@H]2C(=O)N1CCC(Cc2ccccc2)CC1 | -3 | -8
CN(C)CCCNC(=O)[C@@H]1[C@@H](CO)[C@@H]2Cn3c(ccc(-c4cccnc4)c3=O)[C@H]1N2C(=O)CC1CC1 | 5 | 1
CN1c2ccc(C3=CCCCC3)cc2[C@@H]2[C@@H](CCN2C(=O)NC2CCCC2)[C@H]1CO | -4 | -3
C[C@H](CO)N1C[C@H](C)[C@@H](CN(C)S(C)(=O)=O)OCc2cn(nn2)CCCC1=O | -2 | -1
C[C@@H]1CN([C@H](C)CO)C(=O)c2cccc(NS(=O)(=O)c3cccs3)c2O[C@H]1CN(C)Cc1ccc(-c2ccccc2)cc1 | ? | ·
CC(=O)N(C)C[C@@H]1Oc2cc(-c3ccccc3C)ccc2S(=O)(=O)N([C@H](C)CO)C[C@@H]1C | 27 | 8
CN(C)C(=O)c1ccc(-c2ccc([C@H]3[C@@H](CO)N4CCCCN(C(=O)C5CC5)C[C@@H]34)cc2)cc1 | 40 | 9
CCCN(C)C[C@@H]1Oc2cc(C3=CCCCC3)ccc2S(=O)(=O)N([C@@H](C)CO)C[C@@H]1C | -35 | -24
CNC[C@@H]1Oc2c(NS(C)(=O)=O)cccc2C(=O)N([C@H](C)CO)C[C@H]1C | 10 | 5
CN1CCN(C(=O)C[C@H]2C[C@@H]3c4cc(NC(=O)NC5CCCC5)ccc4O[C@@H]3[C@@H](CO)O2)CC1 | 11 | 8
O=C([C@@H]1[C@@H](CO)[C@@H]2Cn3c(ccc(-c4ccncc4)c3=O)[C@@H]2N1CCC(F)(F)F)N1CCCCC1 | 0 | 11
C[C@@H]1CN([C@@H](C)CO)C(=O)c2cc(NC(=O)Nc3cccc4ccccc34)ccc2O[C@@H](C)CCCCO[C@H]1CN(C)Cc1ccc(C(=O)O)cc1 | 20 | 10
C[C@H]1CCCCO[C@@H](CN(C)S(=O)(=O)c2ccccc2)[C@@H](C)CN([C@@H](C)CO)C(=O)c2cc(N(C)C)ccc2O1 | -19 | -16
CCCNC(=O)[C@@H]1N[C@@H]2c3ccc(C4=CCCCC4)c(=O)n3C[C@@H]2[C@H]1CO | 8 | 4

Bioassay records (PubChem)
